# CBX7 inh – CBX7 chromodomain binding inhibitors, primary screen, biochemical, AlphaScreen; Chromobox protein homolog 7 (Homo sapiens), O95931; AID 1224903, 2016; normalised signal (fraction of DMSO) (test concentration not listed); 66,000 tested, 1.1% active; AlphaScreen His6-CBX7 / biotin-H3K27me3 peptide binding; stronger effect = lower value; in the data active = normalised signal below about 0.5;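 note: 100 nL library stock added to about 20 µL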
# Target sequence (O95931 whole entry, looked up): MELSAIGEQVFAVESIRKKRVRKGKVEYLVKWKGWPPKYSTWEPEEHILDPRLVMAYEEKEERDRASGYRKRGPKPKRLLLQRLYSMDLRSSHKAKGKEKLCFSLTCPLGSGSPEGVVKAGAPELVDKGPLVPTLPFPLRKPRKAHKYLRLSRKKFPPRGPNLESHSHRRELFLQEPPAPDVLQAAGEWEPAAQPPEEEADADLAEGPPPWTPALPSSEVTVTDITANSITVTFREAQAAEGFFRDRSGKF
# CBX7 inh z-score – also measured in CBX7 inh; calls as there; z-score; measured here: z-score of CBX7 signal; some inactives read as strong as hits; reference of the scale not given here;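 same signal on another scale; lower means less binding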
# * hit, by the source's call. The list is partial (hit frequency here may not be typical).
structure,CBX7 inh,CBX7 inh z-score
CC1(C)CC(=O)N(CC(=O)N2CCc3ccccc3C2)c2ccccc2S1(=O)=O,0.98,-0.46
COc1ccc(NC(=O)CSc2nc3ccccc3nc2Cc2ccc(F)cc2)cc1OC,1.1,0.25
CCOC(=O)c1c(NC(=O)CSc2ncnc3ccccc23)sc2c1CCCC2,1,0.35
Cc1ccc(S(=O)(=O)Nc2ccc(-c3nc4ccc(C)cc4s3)cc2)cc1,1,-0.059
COc1cccc(-c2nnc(-c3ccc(OC)c(OC)c3)o2)c1,1,0.38
CC(C)c1ccc(NC(=O)C2CCCN(S(=O)(=O)c3ccc(Br)s3)C2)cc1 (stereo not drawn),0.7,-1.2
COc1ccc(-c2cc(CCCC(=O)NCc3ccccn3)no2)cc1,1,-0.07
CCOc1ccc(CCNC(=O)c2ccc3c(c2)NC(=O)C2CCCN32)cc1OCC (stereo not drawn),1.1,0.27
CCOc1ccccc1C1CC(=O)C2=C(C1)Nc1ccccc1NC2c1ccc(OC)cc1 (stereo not drawn),0.99,-0.083
CCS(=O)(=O)N1CCCC(C(=O)NCc2ccc3c(c2)OCO3)C1 (stereo not drawn),1,-0.17
COc1ccccc1-c1cc(C(=O)N2CCCCCC2)no1,0.95,-0.31
CCOC(=O)c1cnc2c(OC)cccc2c1NC(C)c1ccccc1 (stereo not drawn),1,1.3
Cc1cc(C)c(OCCCc2c(C)n[nH]c2C)c(Cl)c1,0.92,-4
Cc1oc(-c2ccc(Cl)cc2)nc1CSCC(=O)NCCCN1CCOCC1,1.2,2.3
O=C(N1CCN(c2nc(-c3ccccc3)c3cc([N+](=O)[O-])ccc3n2)CC1)C(F)(F)F,0.97,-0.25
Cc1ccc(OCC(=O)Nc2ccc(-c3nc4ncccc4o3)cc2)cc1,0.99,-0.15
CC(C)(O)C#CC(c1ccccc1O)N1CCCCC1 (stereo not drawn),1,0.18
CCC(=O)N1c2ccc(S(=O)(=O)N3CCC(Cc4ccccc4)CC3)cc2CC1C (stereo not drawn),1.2,0.92
COc1ccc(-c2nn(C)c3sc(C(=O)Nc4ccc(F)cc4F)cc23)cc1OC,1.1,3.3
COc1ccc2[nH]cc(S(=O)(=O)c3ccccc3)c(=O)c2c1,1.2,2.8
COc1ccc(-c2cc3nc(C)c(CCC(=O)N4CCN(c5ccccc5)CC4)c(C)n3n2)c(OC)c1,1,0.33
COc1ccccc1N1CCN(Cc2cc(Cl)c3cccnc3c2O)CC1,0.00087*,-35*
Cn1c(=O)c(=O)n(C)c2cc(S(=O)(=O)N3CCCC3C(=O)Nc3ccc(F)cc3)ccc21 (stereo not drawn),1.1,1.2
COc1cc(NC(=O)COc2ccccc2)c(OC)cc1Cl,1,1
COc1cc(Cl)c(C)cc1NC(=O)Cn1ncc2c1-c1ccccc1OC2,0.82,-2.3
Cc1ccc(Cn2nnc3c(=O)n(CC(=O)Nc4cccc(F)c4)cnc32)cc1,1,0.6
CCCCn1c(CCNC(=O)CC)nc2ccccc21,1.1,1.4
CCOc1ccc(N2CC(C(=O)NCCOC)CC2=O)cc1 (stereo not drawn),0.96,-0.41
Cc1cccc(-c2cc(C(=O)NCCCn3ccnc3)c3ccccc3n2)c1,0.87,-1.2
Cc1cc(C)nc(Nc2n[nH]c(-c3ccc(C(C)(C)C)cc3)n2)n1,1.2,0.24

# Other results follow:
structure,CBX7 inh,CBX7 inh z-score
CCC(C)NC(=O)C1=CCN(S(=O)(=O)c2ccc(C)cc2)CC1 (stereo not drawn),1.1,0.55
CCC1Oc2ccc(C)cc2N(CC(=O)NCCCN2CCCC2)C1=O (stereo not drawn),1,0.7
O=C(c1cccc(Cl)c1)N1CCN(c2ccc3nnc(-c4ccc(F)cc4)n3n2)CC1,0.92,-1.4
O=C(CSc1nc2ccccc2nc1Cc1ccc(F)cc1)NC1CCCCC1,1,-0.00029
Cc1ccc(-n2ncc3c(=O)n(-c4ccc5c(c4)OCCO5)c(-c4cccc(F)c4)nc32)cc1,0.84,-3.1
COc1ccc(OC)c2c(NCCCN3CCOCC3)cc(C(F)(F)F)nc12,1.1,0.66
Cc1cc2nn(-c3ccc(Cl)cc3)nc2cc1NC(=O)C(C)C,1.1,2.1
Cc1ccc(-c2nc3ncccc3o2)cc1NC(=O)COc1c(C)cc(Cl)cc1Cl,0.96,-0.32
Cc1oc(-c2cccc(Cl)c2)nc1CN1CCC(C(=O)NCCCSC2CCCCC2)CC1,1.4,3
Cc1ccc(C)c(CSc2ncnc3ccccc23)c1,1.2,4.2
COc1ccccc1-c1cc(C(=O)NCCc2ccccc2)no1,0.9,-1.2
COc1ccccc1NC(=O)c1c(NCc2ccccn2)sc2c1CCC(C)C2 (stereo not drawn),0.51,-6.9
O=C(c1noc2c1CCCC2)N1CCN(c2ccc(N3CCOCC3)nn2)CC1,1,0.47
c1ccc(CNC2CCCc3c2[nH]c2ccc(-c4ccccc4)cc32)cc1 (stereo not drawn),0.67,-9.3
O=C(Cn1nc(-c2ccccc2)ccc1=O)NCc1ccccc1Cl,0.99,-0.18
COc1cccc(NC2=NC3CS(=O)(=O)CC3S2)c1 (stereo not drawn),1.1,2
CCC1CCCCN1C(=O)c1nn2c(C(F)(F)F)cc(-c3ccc(F)cc3)nc2c1Cl (stereo not drawn),1,0.11
Cc1ccc(NC(=O)Cn2cc(S(=O)(=O)c3ccc(F)cc3)c(=O)c3ccccc32)c(C)c1,0.86,-2.3
CCOc1ccc(-n2nc(C(=O)Nc3ccc(C)c(F)c3)c3ccccc3c2=O)cc1,0.97,-0.59
COc1cc(NC(=O)C2CCN(C(=O)c3cnn(-c4ccccc4)c3-n3cccc3)CC2)ncn1,1.1,1.1
Cc1cc(Nc2ccc(C(=O)O)cc2)c2cc(Cl)ccc2n1,0.91,-0.1
Brc1ccccc1-c1nc(-c2cccnc2)no1,1.3,2.7
Clc1ccc(-c2ncnn2-c2ccccc2)c(Cl)c1,1.1,1.6
Cc1ccc(-n2c(Cc3cccn3C)nnc2SCC(=O)Nc2c(C)cc(C)cc2C)cc1,0.87,-3.1
COc1cc2c(cc1OC)C(=NCCCCCC(=O)O)NC(C)(C)C2,1,0.14
COc1cccc(-n2c(Cc3cc(=O)[nH]c(=O)[nH]3)nnc2SCc2cc(C)ccc2C)c1,0.91,-1.4
COc1cccc(NC(=O)CCc2c(C)nc3cc(-c4ccccc4OC)nn3c2C)c1,1,1.8
O=C(c1cc2sccc2n1Cc1ccc(Cl)cc1)N1CCC(C(=O)N2CCCC2)CC1,1,0.15
COc1ccccc1OCCCn1c(C2CC(=O)N(c3ccc(C)c(Cl)c3)C2)nc2ccccc21 (stereo not drawn),1,0.099
CCOc1ccc(-c2nc(SCC(=O)Nc3ccc4c(c3)OCO4)c(-c3ccc(F)cc3)[nH]2)cc1,1.1,0.47

# Additional results:
structure,CBX7 inh,CBX7 inh z-score
Cc1ccc(CCNC(=O)c2csc3c2CCCCC3)cc1,0.9,-0.39
Nc1c2c(nc3ccc(Br)cc13)N(c1ccc(Cl)c(Cl)c1)CC2,1,0.13
Cc1cccc(CCNC(=O)CCc2c(C)nc3cc(-c4ccccc4)nn3c2C)c1,1,0.94
Cc1cc(C)c(Cn2c(C)nc3ccccc32)c(C)c1,0.98,-0.95
CCOc1ccc(C(=O)N(Cc2ccccc2Cl)C2CCS(=O)(=O)C2)cc1 (stereo not drawn),0.91,-0.088
Cc1ccccc1-c1nnc(SCC(=O)N2CCCCC2C)o1 (stereo not drawn),0.93,-0.17
CC1(C)CC(=O)c2cc(OCC(=O)NC3CC3)ccc2O1,0.96,-0.81
O=C(CCc1ccccc1)Nc1nnc(-c2ccc3c(c2)OCO3)s1,1,0.18
O=C(CN1C(=O)CC(c2ccccc2)Sc2ccccc21)N1CCCCC1 (stereo not drawn),1,0.83
CC(C)c1ccc(OCC(=O)Nc2ccc(S(=O)(=O)Nc3ncccn3)cc2)cc1,1.1,3.3
CCOc1ccc2nc(N3CCCC(C(=O)Nc4cc(Cl)ccc4OC)C3)sc2c1 (stereo not drawn),0.88,-0.72
COc1ccccc1-c1cc(C(F)(F)F)nc(S(=O)(=O)CCCC(=O)NCc2cccs2)n1,0.99,-0.088
Cc1ccc(Nc2c(-c3cccnc3)nc3ccc(Cl)cn23)cc1,1.1,0.84
COc1ccc(NC(=O)C2CCCN(S(=O)(=O)c3cccc4cccnc34)C2)cc1 (stereo not drawn),1,0.36
COc1ccc(C2C(Oc3ccc(Cl)cc3)C(=O)N2c2ccc(F)cc2)cc1OC (stereo not drawn),1.2,3.4
CC1(C)CC(CCNC(=O)c2ccc(-n3cnnn3)cc2)CC(C)(C)N1,1.1,2.2
Cc1ccc(-c2cc(C(F)F)nc(NCc3ccccc3)n2)cc1,1.3,8.8
CC(C)CCNC(=O)c1ccc(CNc2c(NC3CCCC3)c(=O)c2=O)cc1,1.4,0.8
Cc1ccc(-c2nc(CS(=O)(=O)CC(=O)NCc3ccccc3Cl)c(C)o2)cc1,0.97,-0.062
Cc1ccc(-c2nnc(SCC(=O)N3CCOCC3)o2)cc1C,1.1,2.3
CCOc1ccc(-n2nc(C(=O)Nc3ccc(Br)cc3C)c3ccccc3c2=O)cc1,0.95,-0.64
Cc1cccc(-c2nc(Nc3cccc(C(F)(F)F)c3)c3ccccc3n2)c1,1,0.21
CC(C)c1ccc(C(=O)CC2(O)C(=O)Nc3ccc(Cl)cc32)cc1 (stereo not drawn),1,0.4
COc1cccc(NC(=O)C(NS(=O)(=O)c2ccc3c(c2)CCC(=O)N3)c2ccccc2)c1 (stereo not drawn),0.99,-0.064
CN(C)CCCNC(=O)c1cc(-c2cccc(Br)c2)nc2ccccc12,1.1,2.6
CCOC(=O)c1sc2ncn(CC(=O)NCCCOC)c(=O)c2c1C,1,0.42
CC1CN(S(=O)(=O)c2ccc(C(=O)Nc3nc(-c4ccccn4)cs3)cc2)CC(C)O1 (stereo not drawn),0.31*,-24*
CC(C)Cc1nnc(NC(=O)c2cccc3ccccc23)s1,1.2,0.74
Cc1cccc(N(C)C(=O)Cn2nc(Cc3ccncc3)c3ccccc3c2=O)c1,1,0.029
COc1cc(-c2ncnn2-c2cccc(Cl)c2)ccc1OCc1ccccc1,0.94,-0.74

# Record cards, as listed above:
# CCOc1ccc(CCNC(=O)c2ccc3c(c2)NC(=O)C2CCCN32)cc1OCC (stereo not drawn) across the screens: CBX7 inh = 1.1; CBX7 inh z-score = 0.27
# O=C(c1cc2sccc2n1Cc1ccc(Cl)cc1)N1CCC(C(=O)N2CCCC2)CC1 across the screens: CBX7 inh = 1; CBX7 inh z-score = 0.15

# A portion from further up, for reference:
structure,CBX7 inh,CBX7 inh z-score
Cc1ccc(CCNC(=O)c2csc3c2CCCCC3)cc1,0.9,-0.39
Nc1c2c(nc3ccc(Br)cc13)N(c1ccc(Cl)c(Cl)c1)CC2,1,0.13
Cc1cccc(CCNC(=O)CCc2c(C)nc3cc(-c4ccccc4)nn3c2C)c1,1,0.94
Cc1cc(C)c(Cn2c(C)nc3ccccc32)c(C)c1,0.98,-0.95
CCOc1ccc(C(=O)N(Cc2ccccc2Cl)C2CCS(=O)(=O)C2)cc1 (stereo not drawn),0.91,-0.088

# Remaining list, next part:
structure,CBX7 inh,CBX7 inh z-score
Cc1ccc(C)c2[nH]c(=O)c(CCNC(=O)Cc3ccccc3)cc12,0.98,-0.69
O=C(NCCc1ccc(Cl)cc1)C1CC(=O)N(C2CCCCC2)C1 (stereo not drawn),1,0.4
O=C(Nc1nnc(COc2ccc(F)cc2)s1)c1ccc(F)cc1,1.1,0.53
CC1=Nc2cc(C(=O)NCCCN3CCOCC3)ccc2Sc2c(C)ccc(C)c21,1,0.73
CCOC(=O)c1ccc2c(c1)nc(C)n2CCO,0.98,-0.28
CN(C)C(=O)CSc1nc2cc(Cl)ccc2o1,1,0.23
CC1=Nc2ccccc2N(Cc2ccccc2)C(=O)C1,1,0.014
CCOC(=O)C1CCCN(C(=O)c2cc3c(-c4cccc(OC)c4)nn(C)c3s2)C1 (stereo not drawn),0.97,-0.73
CC1CCCCC1NC(=O)C1CCN(C(=O)c2cnn(-c3ccccc3)c2-n2cccc2)CC1 (stereo not drawn),1.2,1.7
CCN(CCCNC(=O)Cn1nc(-c2ccc(C)cc2)ccc1=O)c1ccccc1,0.8,-9
Cc1ccc(-c2nc(Nc3ccc(C(=O)O)cc3)c3ccccc3n2)cc1,1,0.5
COc1ccc(NC(=O)CSc2nc(-c3cccc(C)c3)[nH]c2-c2ccccc2)cc1OC,0.77,-11
CCCn1c(=N)n(CC(O)COc2ccc(C)cc2)c2ccccc21 (stereo not drawn),0.98,-0.14
Brc1cccc(-c2nc(-c3ccncc3)no2)c1,1.1,0.6
CCOc1ccc(S(=O)(=O)c2cn(Cc3ccc(Cl)cc3)c3ccc(OCC)cc3c2=O)cc1,0.91,-3.2
FC(F)(F)c1cccc(-n2cc(-c3ccccc3)c3c(NCc4cccs4)ncnc32)c1,0.99,-0.26
CCN(CCNC(=O)c1cc(-c2cccnc2)nc2ccccc12)c1ccccc1,0.47*,-10*
O=C(O)c1ccc(-c2nc(-c3ccc(C(=O)c4ccc(F)cc4)cc3)c(-c3ccc(F)cc3)[nH]2)cc1,0.71,-5.7
O=c1[nH]c2ccccc2nc1Cc1cccc(Oc2ccccc2)c1,0.94,-1.9
O=C1CCc2cc(S(=O)(=O)Nc3ccc4c(c3)OCCO4)ccc2N1,0.94,-1.4
